From PubChem BioAssay
N370S GC mod: inhibitors or activators of N370S glucocerebrosidase for Gaucher disease | P04062 | N370S GC spleen homogenate, 4MU-glucoside fluorescence | Potency, µM (doses to about 59.4 µM), for inactives: top-dose activity change, negative = inhibition, most hits filed as inhibitors | 0.092% of 330,000 active | AID 2101; active means well fitted inhibition curve with a large enough effect; inconclusive means small, poorly fitted or top-dose-only effect, or effect the other way, or another doubt; inactive means no such curve, though single readings can be large or run the other way;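 further: 0% = full enzyme activity and -100% = no enzyme basal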
Starred values were filed as active, the others as inactive; ? = inconclusive; [ ] = another dose, or the depositor's remark. Potency means the concentration at half of the fitted maximal effect. Some of the compounds tested, and most or all hits are left out here.

no. | structure | N370S GC mod
1 | O=C(CCc1cnccn1)NC1CCCc2c1cnn2-c1ccc(F)cc1F (stereo not given) | 6%
2 | COc1ccc(-c2nsc3c(N4CCCCC4C)ncnc23)cc1 (stereo not given) | 1%
3 | CC(=O)c1cccc(NC(=O)N2CCCC2C(=O)NCc2ccc(F)cc2)c1 (stereo not given) | 6%
4 | COc1ccc(C(=O)/C=C/Nc2ccc([N+](=O)[O-])cc2C)cc1OC | -5%
5 | Oc1ccc(C[C@@H]2CNC(=S)N2CCCCC2CCCCC2)cc1 | -30%
6 | CC(=O)c1sc2nsc(SCCN3CCOCC3)c2c1N | 11%
7 | CC(=O)N1CCN(C(=O)CCc2nnc(CCCCc3ccccc3)o2)CC1 | -14%
8 | Cc1c(Cl)ccc(S(=O)(=O)NCCCn2ccnc2)c1Cl | -7%
9 | COc1ccc(OC(C)C(=O)Nc2ccc(F)cc2F)cc1 (stereo not given) | -24%
10 | Cc1cc(NC(=O)CCC(=O)N(Cc2cccs2)C(C(=O)NC2CCCC2)c2ccccc2)no1 (stereo not given) | 22%
11 | Cc1sc2c(=O)n3c(nc2c1C(=O)NC1CCCCC1)CCCCC3 | 9%
12 | Cc1cc(=O)oc2cc(OCCCN3C(=O)c4ccccc4C3=O)ccc12 | 2%
13 | O=S(=O)(c1ccccc1)N1CCN(CC2CC3C=CC2C3)CC1 (stereo not given) | -8%
14 | CN(C)S(=O)(=O)c1ccc(N2CCCC2)c(C(=O)NCC2CCCCC2)c1 | -8%
15 | O=C1OC(C(=O)NCc2ccccc2)Cc2ccccc21 (stereo not given) | 8%

Carrying on.
no. | structure | N370S GC mod
16 | CCOc1ccccc1CNS(=O)(=O)c1ccc2[nH]c(=O)sc2c1 | 6%
17 | CCC(C)NC(=O)CC1Oc2ccc(C)cc2NC1=O (stereo not given) | 2%
18 | COC(=O)C1=C(C)OC(N)=C(C#N)C1c1ccsc1 (stereo not given) | 3%
19 | COC(=O)CSc1nc(N)c2c3c(sc2n1)CCCC3 | 4%
20 | O=C(c1ccc(Br)cc1)N1CCC2(CC1)NCCc1[nH]cnc12 | -4%
21 | O=C(COc1ccc(Br)cc1)Nc1ccc2oc(=O)ccc2c1 | -5%
22 | Cc1ccc(NC2CCCN(C(=O)Cc3nonc3C)C2)cc1C (stereo not given) | -1%
23 | CN(c1ccc(C(=O)NCc2cccs2)cc1)S(=O)(=O)c1ccccc1 | -8%
24 | COc1cc(NC(=O)C(F)(F)F)cc(OC)c1 | -3%
25 | CN1CCN(S(=O)(=O)CC2(C)C3CCC2(C)C(=O)C3Br)CC1 (stereo not given) | -3%
26 | Cc1cc(Cl)ccc1Oc1ncnc2oc(-c3ccccc3)cc12 | -3%
27 | N#C/C(=C/c1ccc(N2CCOCC2)o1)C(=O)Nc1ccccc1 | -3%
28 | COc1ccccc1N1CCN(Cc2cc(=O)n3ccsc3n2)CC1 | 3%
29 | CC(=O)Nc1ccc(S(=O)(=O)Nc2nccc(C3Cc4ccccc4C(=O)O3)n2)cc1 (stereo not given) | 5%
30 | CCn1cc(CN2CCN(Cc3ccccc3)C(CCO)C2)c2ccccc21 (stereo not given) | -8%

Some of these compounds in order of the N370S GC mod value, low to high.
| nr | SMILES | N370S GC mod |
| --- | --- | --- |
| 7 | CC(=O)N1CCN(C(=O)CCc2nnc(CCCCc3ccccc3)o2)CC1 | -14% |
| 23 | CN(c1ccc(C(=O)NCc2cccs2)cc1)S(=O)(=O)c1ccccc1 | -8% |
| 2 | COc1ccc(-c2nsc3c(N4CCCCC4C)ncnc23)cc1 (stereo not given) | 1% |
| 29 | CC(=O)Nc1ccc(S(=O)(=O)Nc2nccc(C3Cc4ccccc4C(=O)O3)n2)cc1 (stereo not given) | 5% |
| 15 | O=C1OC(C(=O)NCc2ccccc2)Cc2ccccc21 (stereo not given) | 8% |
| 11 | Cc1sc2c(=O)n3c(nc2c1C(=O)NC1CCCCC1)CCCCC3 | 9% |

Other records follow:
no. | structure | N370S GC mod
31 | COCCn1nnnc1C(c1cc2cc(C)ccc2[nH]c1=O)N1CCN(C2CCCCC2)CC1 (stereo not given) | -5%
32 | Cc1ccc(NC(=O)CN2C(=O)N/C(=C/c3ccco3)C2=O)cc1 | -3%
33 | Cc1cc(-c2ccccc2)c(C#N)c(SCC(N)=O)n1 | -16%[2.35 µM]
34 | Cc1nnc(NC(=O)CSc2nccn2-c2ccc(F)cc2)s1 | -3%
35 | CC(=O)Nc1nnc(C2=COCCO2)o1 | 1%
36 | O=C1N=C2SCCN2/C1=C\c1ccccc1Cl | 2%
37 | COc1ccc(C(=O)NCCN2CCN(C(=O)c3ccc(OC)c(OC)c3)CC2)cc1OC | -1%
38 | O=C(CC1SC2=NCCN2C1=O)Nc1ccccc1 (stereo not given) | 5%
39 | CCN(CC)S(=O)(=O)c1ccc(-c2nnc(SC)o2)cc1 | -5%
40 | COc1cccc(-n2nnnc2SCC(=O)c2ccc(NC(C)=O)cc2)c1 | -12%
41 | O=C(CN1CCN(C(=O)C2CCCO2)CC1)Nc1cc(C(F)(F)F)ccc1Cl (stereo not given) | -2%
42 | CCOc1ccc(-n2nnnc2-c2nc3ccccc3s2)cc1 | 6%
43 | O=C(CSc1ncnc2c1cnn2-c1ccccc1)Nc1ccccc1 | 2%
44 | Cc1cc(=O)oc(C)c1C(=O)Nc1ccccc1F | -3%
45 | COc1ccc(N/C(N)=N/c2nc(CSc3ccc(C)cc3)cc(=O)[nH]2)cc1 | -13%

Looked up by compound from the entries so far:
no. | structure | N370S GC mod
13 | O=S(=O)(c1ccccc1)N1CCN(CC2CC3C=CC2C3)CC1 (stereo not given) | -8%
4 | COc1ccc(C(=O)/C=C/Nc2ccc([N+](=O)[O-])cc2C)cc1OC | -5%
28 | COc1ccccc1N1CCN(Cc2cc(=O)n3ccsc3n2)CC1 | 3%
21 | O=C(COc1ccc(Br)cc1)Nc1ccc2oc(=O)ccc2c1 | -5%
17 | CCC(C)NC(=O)CC1Oc2ccc(C)cc2NC1=O (stereo not given) | 2%

Further results follow.
no. | structure | N370S GC mod
46 | CCOC(=O)c1ccc(NC(=O)CSc2nc(NC(=O)c3ccccc3)c3c(C)c(C)oc3n2)cc1 | 9%
47 | CCOc1ccccc1NC(=O)Nc1cccc(S(N)(=O)=O)c1 | -18%
48 | COc1ccccc1N/N=C/c1ccc2c(c1)OCO2 | -4%
49 | COCCCN1C(=O)C(=O)/C(=C(/O)c2ccc(OC)cc2)C1c1ccc(O)c(OC)c1 (stereo not given) | -12%
50 | O=C(c1cc(-c2ccc(Cl)cc2)on1)N1CCN(c2ccc(F)cc2)CC1 | 0%
51 | CCOc1ccc(NC(=O)c2ccccc2NC(=O)CN(C)CC(=O)Nc2ccc(C)cc2)cc1 | ?
52 | O=C(CCCc1nc2ccccc2s1)NCc1ccc(F)cc1 | -11%
53 | Cc1cc(C)nc(NC2=NCC(=O)N2c2ccccc2)n1 | 9%
54 | CCC(C)c1ccc(NC(=O)Nc2cnccn2)cc1 (stereo not given) | ?
55 | O=C1[C@H]2[C@H](ON3CCCC[C@H]23)C(=O)N1c1ccc(Cl)cc1 | -4%
56 | Cc1ccc(N/C(N)=N/c2nc(CSc3ccc(C)cc3)cc(=O)[nH]2)cc1 | 2%
57 | CN(C)S(=O)(=O)c1ccc(N2CCCC2)c(C(=O)Nc2nc(-c3ccc(F)c(F)c3)cs2)c1 | 7%
58 | CS(=O)(=O)c1ccc2nc(NC(=O)C3CCCCC3)sc2c1 | 6%
59 | O=C(CCN1C(=O)C2C3C=CC(C3)C2C1=O)Nc1c(F)cccc1F (stereo not given) | 7%
60 | NS(=O)(=O)c1cc2c(cc1Cl)NC(CSCc1ccccc1)=NS2(=O)=O | 11%

(listing goes on)
no. | structure | N370S GC mod
61 | COc1cc(OC)c(C(=O)Nc2ccc(S(=O)(=O)N3CCCCC3)cc2)cc1OC | -24%
62 | Cc1ccc(-n2nc3c(=O)n(C(C)C(=O)NC4CC4)nc(C)c3c2C)cc1 (stereo not given) | -11%
63 | CCOc1cc(C(=O)Nc2ccon2)cc(OCC)c1OCC | -22%
64 | COC(=O)c1cnn(-c2ccc(Cl)cc2)c1/C=N/NC(N)=S | -2%
65 | O=C1CCCC2=C1C(c1ccccc1)C1C(=O)c3ccccc3C1=N2 (stereo not given) | 10%
66 | NC(=O)NC(CC(=O)N1CCc2ccccc2C1)c1ccc(Cl)cc1 (stereo not given) | -8%
67 | COc1ccccc1NS(=O)(=O)c1ccccc1C#N | 4%
68 | CCOc1ccc(-n2nnc3c(=O)n(CC(=O)N4CCCc5ccccc54)cnc32)cc1 | -2%
69 | CCn1c(=O)cc(SCC(=O)NCc2ccco2)c2ccccc21 | 2%
70 | O=C(Nc1ccc(C(F)(F)F)cc1)c1cc(-c2cccnc2)nc2ccc(Br)cc12 | 7%
71 | Nc1cc(N2CCOCC2)c(Cl)cc1[N+](=O)[O-] | -18%
72 | CCOC(=O)c1c(C)oc2cc(Br)c(O)c(Br)c12 | 3%
73 | NC(=O)N/N=C/c1c(F)c(F)c(F)c(F)c1F | 4%
74 | O=C1c2oc3ccccc3c(=O)c2C(c2cccnc2)N1CCCN1CCOCC1 (stereo not given) | -28%
75 | C=CCNC(=S)NNC(=O)c1ccccc1OCC | 31%

Structures above containing a nitro group on carbon:
no. | structure | N370S GC mod
4 | COc1ccc(C(=O)/C=C/Nc2ccc([N+](=O)[O-])cc2C)cc1OC | -5%
71 | Nc1cc(N2CCOCC2)c(Cl)cc1[N+](=O)[O-] | -18%

(listing goes on)
no. | structure | N370S GC mod
76 | COCCCNC(=O)C1CCN(S(=O)(=O)c2c(C)noc2/C=C\c2ccc(OC)cc2)CC1 | -1%
77 | CCOC(=O)NC(=S)Nc1ccc(OC)cc1 | -11%
78 | O=C(NNc1ccc([N+](=O)[O-])cc1)C1C2CCCCC21 (stereo not given) | 9%
79 | O=C(CN(Cc1cccs1)C(=O)CSc1nnc(COc2ccccc2)o1)NC1CCCC1 | -4%
80 | Cc1cccc(NS(=O)(=O)c2cc(C(=O)N3CCc4ccccc4C3)ccc2Cl)c1C | 0%
81 | COCCNc1oc(-c2ccccc2Cl)nc1C#N | -5%
82 | Cc1cc(NC(=O)CC2(CC(=O)O)CCCC2)n(C)n1 | 0%
83 | O=C(O)CCCC(=O)Nc1ccccc1Oc1ccccc1 | 3%
84 | CCOC(=O)N1CCc2c(sc3ncn(Cc4ccc(F)cc4)c(=O)c23)C1 | -11%
85 | CCCCNC(=O)CCCCn1c(=S)[nH]c2c([nH]c3ccc(OC)cc32)c1=O | -1%
86 | CCCC1(c2ccccc2)NC(=O)NC1=O (stereo not given) | -7%
87 | O=C(c1ccco1)N1CCN(C2CC(=O)N(c3ccccc3)C2=O)CC1 (stereo not given) | 27%
88 | COc1ccc(C(=O)CCN2CCc3cc(OC)c(OC)cc3C2)cc1 | -11%
89 | O=C(/C=C/c1cc([N+](=O)[O-])ccc1OC(F)F)Nc1ccc(OC(F)F)cc1 | -3%
90 | CN1C(=O)C2(c3ccccc31)N(C)CC(c1ccccn1)C21SC(=S)N(Cc2ccco2)C1=O (stereo not given) | 14%

(next part)
no. | structure | N370S GC mod
91 | Cc1ccc(N=C2SC(C(=O)NCCc3ccccc3)CC(=O)N2C)cc1C (stereo not given) | -12%
92 | COc1ccc(CNC(=O)Cn2nc(Cc3cccnc3)c3ccccc3c2=O)cc1 | -11%
93 | COC(=O)C1(C(O)C(=O)c2ccc(C)cc2C)CCCCC1 (stereo not given) | -13%
94 | COCCc1nc2ccc(C(=O)N(C)Cc3cccc(-n4cccn4)c3)cc2o1 | 2%
95 | COc1ccc(C(C)C)cc1S(=O)(=O)N1CCC(C(=O)NCC2CCCO2)CC1 (stereo not given) | -5%
96 | Cc1cccc(NC(=O)CC2CCC2)c1 | 3%
97 | O=C(Nc1ncn[nH]1)c1ccc(S(=O)(=O)N2CCOCC2)cc1 | -4%
98 | Cc1ccccc1NC(=O)CSc1nnc(CNC(=O)c2ccco2)n1C | 1%
99 | CC(=O)Nc1nnc(SCC(=O)NCC2CCCO2)s1 (stereo not given) | -22%[2.35 µM]
100 | CC(C)Cn1c(=S)[nH]c2cc(C(=O)O)ccc2c1=O | 4%
101 | CCc1c(C(=O)NNC(=S)NCC(C)C)csc1C | -12%
102 | CCOC(=O)/C(=N\Nc1cc(Cl)ccc1Cl)N1CCN(C)CC1 | 2%
